# From PubChem BioAssay
# AID504770 = growth inhibitors of E. coli YBA685 in a screen for V. cholerae RctB (chromosome II replication) inhibitors | AID 504770 | 130,000 compounds, 0.27% hits | E. coli YBA685 rctB-dependent plasmid, OD600 growth, 3 h; active compounds read low | z-score (test concentration not listed);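 active means z-score under -2 on both plates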;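 further: wells of about 30 µL received 100 nL stock; score is relative to mean and SD of the test wells; the first replicate is given; strong numbers were not always called active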
# CapD inh = inhibitors of Bacillus anthracis CapD enzyme; purified CapD enzyme, fluorescence intensity read-out; active compounds read low; some hits fall short of the stated cut; z-score (test concentration not listed); 140,000 compounds, 0.23% hits; AID 492967;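 active means z-score under -4 in either of two replicates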;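 further: stock transfer was 100 nL into about 40 µL; score is relative to mean and spread of the plate; one replicate is shown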
# * hit, by the source's call; / = not tested or not shown.
mol | AID504770 | CapD inh
CSc1ccc(C2C=C(c3cccs3)Nc3ncnn32)cc1 (centres undefined) | / | 51
COc1cc(NC(=O)c2noc3c2CCC3)cc(OC)c1OC | -0.7 | -0.39
CC[C@@H]1[C@H]2CCCCN3[C@H]2[C@H](C[C@H]3[C@@H]2C[C@H](C)C(=O)O2)[C@@H]2[C@H]1OC(=O)[C@H]2C | -0.15 | 0.68
CCCn1c(=NC(=O)C2CC2)sc2cc3c(cc21)OCO3 | 0.5 | /
CCC1(COCc2ccccc2)CCC(c2ccccc2)O1 (centres undefined) | -0.6 | 0.38
COCCN1Cc2cccc(C(=O)N3CCC(N4CCCCC4)CC3)c2C1=O | 2 | -0.8
Cc1ccc(C(=O)N/C(=C/c2ccco2)C(=O)N2CCOCC2)cc1 | 1.8 | -1.1
Cc1ccc(S(=O)(=O)Cn2nnnc2C(C(C)C)N2CCSCC2)cc1 (centres undefined) | 0.05 | /

# Molecules from the list above that contain four or more nitrogen atoms:
mol | AID504770 | CapD inh
CSc1ccc(C2C=C(c3cccs3)Nc3ncnn32)cc1 (centres undefined) | / | 51
Cc1ccc(S(=O)(=O)Cn2nnnc2C(C(C)C)N2CCSCC2)cc1 (centres undefined) | 0.05 | /

# Next compounds:
mol | AID504770 | CapD inh
O=[N+]([O-])c1ccc(-c2cn3nc(C(F)(F)F)sc3n2)cc1 | / | 0.17
CC1(C)C2CCC1(CS(=O)(=O)Nc1cccc(C(F)(F)F)c1)C(=O)C2 (centres undefined) | -0.3 | -0.25
O=C(NCc1ccc2c(c1)OCO2)C1CCCN(S(=O)(=O)N2CCCCC2)C1 (centres undefined) | -0.2 | -0.1
CCN1C(=O)/C(=C\c2ccco2)C(C(=O)OC)=C1C | -0.2 | -0.87
O=C1Nc2ccc(Cl)cc2/C1=C/c1ccccc1 | 0.45 | -0.83
O=C(Nc1ccccc1)C1CCC1 | 0.05 | 0.7
Cc1ccc(S(=O)(=O)N2C(=O)CCC2C(=O)NCc2ccco2)cc1 (centres undefined) | -0.35 | /
Cc1ccc(C2OCC3(CO)COC(c4ccc(C)cc4)N23)cc1 (centres undefined) | -0.95 | -0.57
COc1cc(OC)nc(C(SCCNC(=O)c2c(OC)cccc2OC)c2ccccc2)n1 (centres undefined) | / | -0.88
O=S(=O)(NC1(C(F)(F)F)OCCO1)c1ccccc1 | 0.4 | -0.53
Cc1ccc2oc(=O)c3cc(C(=O)NCCN(C)C)sc3c2c1 | 0.75 | 75
CCOP(=O)(OCC)c1nc(-c2ccccc2Cl)oc1N1CCOCC1 | / | 35
CCC(=O)NCC(=O)Nc1ccc(Br)cc1C(=O)c1ccccc1 | 0 | -0.28
Cn1nc2c3ccccc3n(Cc3ccc(F)cc3)c2nc1=S | -0.7 | -1.1
CC1CCCC(C)N1C(=O)COc1ncnc2ccccc12 (centres undefined) | -1.1 | -0.66
O=C(O)CCc1ccc2ccccc2n1 | -0.4 | /
Cc1csc(NC(=O)CN2C(=O)COc3cc(S(=O)(=O)N4CCC(C)CC4)ccc32)n1 | 2.6 | -0.84
CN1C(CC(=O)c2ccccc2)CCC[C@H]1CC(O)c1ccccc1 (some centres undefined) | -0.5 | 0.32
O=C1C=C(NCc2ccco2)CC(c2ccccc2)C1 (centres undefined) | -0.6 | 0.34
CN(C)c1ccc(/C=N/c2oc(-c3ccccc3)c(-c3ccccc3)c2C#N)cc1[N+](=O)[O-] | / | 1.3
CC1(C)CC(CC(=O)O)(Cc2ccccc2)CCO1 (centres undefined) | 1.1 | /
Cc1c(Cc2ccc(F)cc2)c(=O)oc2cc(O)ccc12 | -0.6 | 26
O=C1CCCC2=C1C(c1cccnc1)CC(=O)N2c1ccccc1C(F)(F)F (centres undefined) | 0.6 | 0.43
O=c1[nH]c2ccccc2[nH]1 | -0.3 | /

# Some values from above.
# Cc1csc(NC(=O)CN2C(=O)COc3cc(S(=O)(=O)N4CCC(C)CC4)ccc32)n1 in CapD inh reads -0.84
# O=C1CCCC2=C1C(c1cccnc1)CC(=O)N2c1ccccc1C(F)(F)F (centres undefined) in CapD inh reads 0.43

# Continuation.
mol | AID504770 | CapD inh
O=C(O)Cc1ccc(-n2cccc2)cc1 | -1 | /
CNC(=S)NCc1ccc(C(=O)OC)cc1 | -0.4 | /
COc1ccc(NC(=O)c2c(NC(=O)c3ccccc3Br)sc3c2CCCCC3)cc1 | / | 0.2
Cc1ccc(C(=O)ON2C(=O)c3ccccc3C2=O)cc1 | -0.9 | /
C1COC(CNCC2CC2)C1 (centres undefined) | 0.1 | -0.33
CN(C)C(=S)SCC(=O)N1CCN(S(=O)(=O)c2ccc3ccccc3c2)CC1 | -0.55 | /
c1ccc(C2C3=C(Nc4ncnn42)c2ccccc2CC3)cc1 (centres undefined) | 0.55 | /
CON(C)S(=O)(=O)c1ccc(Br)c(C(=O)OCCCn2c(=O)[nH]c3ccccc32)c1 | 0.45 | /

# Looked up by structure from above (6):
mol | AID504770 | CapD inh
C1COC(CNCC2CC2)C1 (centres undefined) | 0.1 | -0.33
O=C(O)Cc1ccc(-n2cccc2)cc1 | -1 | /
CNC(=S)NCc1ccc(C(=O)OC)cc1 | -0.4 | /
CON(C)S(=O)(=O)c1ccc(Br)c(C(=O)OCCCn2c(=O)[nH]c3ccccc32)c1 | 0.45 | /
Cc1ccc(C(=O)ON2C(=O)c3ccccc3C2=O)cc1 | -0.9 | /
COc1ccc(NC(=O)c2c(NC(=O)c3ccccc3Br)sc3c2CCCCC3)cc1 | / | 0.2

# Following part:
mol | AID504770 | CapD inh
COc1ccccc1C(O)(C(=O)NN(c1ccccc1)c1ccccc1)c1ccccc1OC | / | 0.22
Cc1nc(N2CCN(C)CC2)c(C#N)c(C)c1Br | 0.35 | 0.98
O=C(CN1C(=O)S/C(=C/c2ccc(Br)cc2)C1=O)Nc1ccc(O)cc1 | / | -0.87
O=S(=O)(Cc1ccc2nonc2c1)c1cccs1 | 0.2 | -0.65
CC(=O)NC1CCC(C)CC1 (centres undefined) | 2.1 | -0.31
COc1ccccc1OC(=O)/C=C/c1ccc(I)o1 | -0.75 | /
O=C(CSc1n[nH]c(-c2ccccc2)n1)c1ccc(S(=O)(=O)N2CCCC2)cc1 | 3.1 | /
CCSc1nnc2c(n1)OC(c1ccc(N(CC)CC)cc1)Nc1ccccc1-2 (centres undefined) | / | -0.21
CSc1nc2ccc(NC(=O)c3coc4ccccc4c3=O)cc2s1 | -1.1 | 0.33
O=C1NC(=O)C(=Cc2ccc(SCc3ccc(Cl)cc3)o2)C(=O)N1 | -1.5 | -0.3
CCOC(=O)CSc1nc2sc3c(c2c(=O)n1-c1ccc(OC)cc1)CC(C)(CC)OC3 (centres undefined) | / | -0.72
O=C(NCCN1CCOCC1)c1ccc2n[nH]nc2c1 | / | 13
O=C1c2ccccc2C(=O)N1CCCN1CCN(CCCN2C(=O)c3ccccc3C2=O)CC1 | 1.4 | -0.31
C=CCNC(=O)c1ccc(-c2nc(-c3ccc(Cl)cc3Cl)cs2)cc1 | / | 1
O=C(NCc1ccco1)C1=COCCO1 | -0.05 | /
N#C/C(=C(/O)CSc1ncn[nH]1)c1nc2ccccc2[nH]1 | 0 | /

# Going on with the list.
# The line under a structure holds: AID504770 | CapD inh
Cc1noc(C)c1/C=C/C(=O)NNc1c(F)c(F)c(F)c(F)c1F
 : 0.05 | /
COc1cc2c(cc1OC)C1CC(=NO)C(CC(C)C)CN1CC2 (centres undefined)
 : -1.8 | -0.51
CCN(C(=N)N=C(N)N)c1ccccc1
 : 0.1 | -0.23
CC(C)CC1NC(=O)N(c2ccccc2)C1=O (centres undefined)
 : -0.8 | 0.38
COc1cccc(C2c3[nH]c4ccccc4c3CCN2S(=O)(=O)c2ccc(Cl)c(Cl)c2)c1 (centres undefined)
 : / | -0.61
Cc1cccc(-n2c(C)nnc2SCC(=O)Nc2ccccc2C(=O)NC2CC2)c1
 : 1.1 | /
Cc1ccc(C2CC(c3cccs3)=NN2C(=O)c2ccc(Br)o2)cc1 (centres undefined)
 : / | 4.3
CCOC(=O)c1sc(C)c2c1NC(C)(c1ccccc1)NC2=O (centres undefined)
 : -0.9 | 1.5
CC(C)C(Nc1n[nH]c(=O)[nH]c1=O)C(=O)O (centres undefined)
 : 0.55 | /
O=C(C1CCCN(S(=O)(=O)c2cccc3cccnc23)C1)N1CCc2ccccc21 (centres undefined)
 : 0.1 | -0.015
O=C(CC12CC3CC(CC(C3)C1)C2)n1cccn1
 : 0.3 | 0.21
CC(NC(=O)c1ccc(Cl)cc1Cl)C(=O)NCc1cccnc1 (centres undefined)
 : -0.4 | 0.4
CN(C)S(=O)(=O)c1ccc(SCc2cc3c(cc2Br)OCO3)nc1
 : -0.3 | /
O=C(COC(=O)C(Cc1c[nH]c2ccccc12)NC(=O)C12CC3CC(CC(C3)C1)C2)c1ccccc1 (centres undefined)
 : / | 0.085
O=C(/C=C/c1cccc(Br)c1)N1CCCC1
 : 0.85 | 0.72
Cc1ccc(C(O)c2nccc3ccccc23)cc1 (centres undefined)
 : -0.5 | 0.18
CCc1ccc(OCC(=O)NC(C)C)cc1
 : -0.9 | 0.22
N#C/C(N=Cc1cccs1)=C(\C#N)NCc1ccccc1Sc1ccc(Cl)cc1
 : 1.8 | -0.54
COc1ccc(-c2nc(-c3ccncc3)[nH]c(=O)n2)cc1
 : 1.9 | -0.42
COc1cc(OC)nc(N2CCC(c3c[nH]c4ccccc34)CC2)n1
 : / | -0.16
CCCCCC(=O)N(c1ccccc1)C1CC(C)N(C(=O)c2cccc(OC)c2)c2ccccc21 (centres undefined)
 : / | -0.28
COC(=O)c1ccccc1NC(=O)Cn1nc(C)n2cccc2c1=O
 : 0.45 | 2.5
CN(CP(=O)(O)CN1CCOCC1)S(C)(=O)=O
 : -0.9 | 0.18
CCC(C)NC(=O)c1ccc(-n2ccc3ccccc32)s1 (centres undefined)
 : -3 | 52
COC(=O)C1=C(N)OC2=C(C(=O)CC(c3ccccc3)C2)C1c1ccc(F)cc1 (centres undefined)
 : / | 0.13
CCc1ccc(C2CC(=O)NC(SCC(=O)Nc3ccccc3)=C2C#N)cc1 (centres undefined)
 : 1.7 | -0.82
C=CCSc1n[nH]c(-c2cccs2)n1
 : 2.7 | -1.3
CC(C)c1ccccc1NC(=O)/C=C/c1ccco1
 : -0.4 | -0.91
N#CC1(C#N)C(C(N)=O)C1c1ccccc1 (centres undefined)
 : 0.35 | 0.52
N#Cc1c(-c2ccncc2)[nH]c(=S)[nH]c1=O
 : -1.1 | -0.065
O=C1Nc2ccccc2/C1=C\c1cccc2ccccc12
 : 2.3 | -1.3
O=C(O)C1(NS(=O)(=O)c2ccc(F)cc2)CCCCC1
 : -0.55 | /
CSc1ncccc1C(=O)OCc1cc(=O)n2cc(C)ccc2n1
 : -1.1 | /
O=C(OCc1nnc(-c2ccccc2)o1)C1CCN(C(=O)c2ccc(Cl)cc2)CC1
 : 0.65 | /
Cc1ccc(C)c2[nH]c(=O)c(CCNC(=O)c3ccc(Br)o3)cc12
 : 0 | /
CCCCN(CCCC)CC(O)CN(c1ccc(OC)cc1)S(=O)(=O)c1ccccc1 (centres undefined)
 : / | -0.59
Cc1cc(OCC(=O)Nc2c(C)ccc3nsnc23)ccc1Cl
 : 0.1 | 65
O=C(Nc1ccc(Br)cc1)c1ccc(-n2cccn2)cc1
 : 0.3 | 0.24
CNS(=O)(=O)c1ccc2c(c1)Cc1cc(S(=O)(=O)NC)ccc1-2
 : / | 0.64
CC1(C)c2ssc(=S)c2-c2ccccc2N1C(=O)CN1C(=O)c2cccc([N+](=O)[O-])c2C1=O
 : / | -0.51

# Compound profiles, as listed above. Order of values: AID504770 | CapD inh
# N#Cc1c(-c2ccncc2)[nH]c(=S)[nH]c1=O in the list: -1.1 | -0.065
# Cc1ccc(C)c2[nH]c(=O)c(CCNC(=O)c3ccc(Br)o3)cc12 in the list: 0 | /

# Next structures follow:
# The line under a structure holds: AID504770 | CapD inh
CN(CCO)C(=O)NCc1cccs1
 : / | 0.14
CCOc1ccc(/C=C(\C)[N+](=O)[O-])cc1OC
 : / | -0.55
CC(C)=CC(=O)Nc1ccc(S(N)(=O)=O)cc1
 : -1 | 0.14
O=C(c1ccc2cc[nH]c2c1)N1CCNCC1
 : / | 2.7
CCc1cccc(NC(=O)c2cccc3c2C(=O)N(CC2CCCO2)C3)c1 (centres undefined)
 : 0.5 | -0.84
C/C=N/N=C1/NC(=O)C(CC(=O)Nc2cccc(C)c2C)S1 (centres undefined)
 : 0.5 | 0.4
CCn1c(-c2ccccc2)c(C(=O)COC(=O)/C=C/c2ccco2)c2ccccc21
 : 0.3 | /
FC(F)(F)c1c(-c2ccccc2)c2cc(Cl)ccc2n1Cc1ccccc1
 : / | 1.2
O=C(c1cc(NS(=O)(=O)c2ccc(F)cc2)ccn1)N1CCc2ccccc21
 : -1.3 | -0.09
CC(=O)Nc1ccc(/C=C2\N=C(C)OC2=O)cc1
 : 0.85 | -1.1
O=C(CC1CCCC1)Nc1cc2c(cc1Br)OCCO2
 : -0.55 | /
Cc1cc(C(=O)OCc2cc(=O)oc3c(C)c(C)ccc23)on1
 : 0.95 | /
CCOc1ccc(C2=NN3C(C2)c2cc(Cl)ccc2OC3c2ccc(OCC)cc2)cc1 (centres undefined)
 : / | -1.1
N=C(N)c1cccc(NC(=O)Nc2cccc(C(=N)N)c2)c1
 : 1.4 | 0.57
CCc1ccccc1N(C)S(=O)(=O)c1cc(-c2cc(C)no2)ccc1OC
 : -0.75 | -0.015
CCc1ccc(C(=O)Oc2cccnc2)cc1
 : -0.45 | -0.62
COc1cccc(C(=O)NC(=S)NCc2ccco2)c1
 : -0.35 | /
CCC1CCCCN1S(=O)(=O)c1ccc(NC(=O)/C=C/c2ccco2)cc1 (centres undefined)
 : 0.5 | 0.23
CCn1cnc2sc(C(=O)Nc3nc4ccc(Br)cc4s3)c(C)c2c1=O
 : / | 0.82
CC(C)N1CCC(=O)N(c2ccccc2Cl)C1=O
 : 0.25 | 0.52
N#Cc1c(-c2ccco2)cc(-c2cccs2)[nH]c1=O
 : 0.85 | 1.5
O=C(Nc1nc2ccccc2[nH]1)c1ccccc1F
 : 0.5 | 0.21
N#CC1=C(N)SC(N)=C(C#N)C1C1CCCCC1
 : -0.65 | -0.09
O=C1NCCN1CCNS(=O)(=O)c1ccc(S(=O)(=O)c2ccccc2)s1
 : -0.6 | -1.4
